D2 PAM = positive allosteric modulators of human D2 dopamine receptor. P14416. DiscoveRx D2 beta-arrestin cells, luminescence, 90 min; 100% = 57 uM dopamine signal. potentiation, % (test concentration not listed). 0.23% of 360,000 active. AID 624464; active = potentiation of 50% or more; inconclusive = 30% to 50%; inactive = 30% or less;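 also: compound concentration not given in the record; tested on top of an EC20 dose of dopamine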
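PathHunter D2 cells, attached overnight at 37 deg C, received compound in DMSO plus dopamine at EC20 (50 nM final) for 90 min at 37 deg C. Beta-arrestin recruitment was read as luminescence after 1 h with detection reagent at ambient temperature.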
PINK1 expr mod = PINK1 expression modulation; PINK1 immunofluorescence, high-content cytometry, 24 h; Potency, µM (top dose mostly 76.6 µM), inactives show top-dose activation (PINK1 increase), hits mostly activators; AID 624263; 0.2% of 410,000 active; active = well fitted activation curve with a large enough effect; inconclusive = small, poorly fitted or top-dose-only effect; inactive = flat fitted curve, though single readings scatter; cell line not stated here;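 also: potency is read from the fitted curve at half-maximal effect; % of control where 0% means no effect; nearly all actives have a fitted effect of over 65% in size; a mitochondrial uncoupler was the plate control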
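Measures PINK1 amount and localization on or inside mitochondria by immunofluorescence. Stable cells get compounds at 5 concentrations for 24 hours before fixation and staining; CCCP controls included.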
Six1-Eya2 inh = inhibitors of human Six1/Eya2 interaction. Q15475+O00167. AlphaScreen GST-Six1/His-Eya2 binding, biochemical; stronger effect = lower value; control for the full effect not named in the record. activity change, % (test concentration not listed). 0.56% of 360,000 active; in the data active = activity change below about -65%; inconclusive = about -30% to -65%; inactive = above about -30%; also: % is scaled to controls: 0 for no effect and ±100 for the full control effect; compound concentration not given in the record
Target sequence (O00167 whole entry, looked up): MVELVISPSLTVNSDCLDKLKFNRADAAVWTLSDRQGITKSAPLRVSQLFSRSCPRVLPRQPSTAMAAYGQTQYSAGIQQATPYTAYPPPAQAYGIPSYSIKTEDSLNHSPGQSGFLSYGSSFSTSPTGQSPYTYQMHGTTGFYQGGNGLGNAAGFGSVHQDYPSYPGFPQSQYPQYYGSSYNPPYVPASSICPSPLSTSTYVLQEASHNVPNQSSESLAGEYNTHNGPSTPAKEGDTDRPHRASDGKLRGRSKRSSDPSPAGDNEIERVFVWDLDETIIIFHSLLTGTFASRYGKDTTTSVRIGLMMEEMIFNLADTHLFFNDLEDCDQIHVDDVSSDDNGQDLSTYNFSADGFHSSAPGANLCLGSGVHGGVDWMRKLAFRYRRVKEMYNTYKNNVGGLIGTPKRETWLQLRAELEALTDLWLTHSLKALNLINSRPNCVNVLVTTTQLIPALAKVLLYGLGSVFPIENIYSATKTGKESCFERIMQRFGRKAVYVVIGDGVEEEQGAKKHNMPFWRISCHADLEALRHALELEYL
Target sequence (Q15475 whole entry, looked up): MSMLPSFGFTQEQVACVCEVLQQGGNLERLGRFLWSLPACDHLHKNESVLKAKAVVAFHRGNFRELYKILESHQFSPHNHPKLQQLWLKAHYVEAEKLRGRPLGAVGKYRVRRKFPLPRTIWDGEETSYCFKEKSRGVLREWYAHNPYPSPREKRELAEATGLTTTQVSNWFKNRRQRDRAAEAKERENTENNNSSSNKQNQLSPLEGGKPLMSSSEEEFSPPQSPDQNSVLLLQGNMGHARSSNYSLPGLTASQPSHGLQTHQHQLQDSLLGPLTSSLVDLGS
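GST-Six1 + His-Eya2 (5X stock: 250/500 nM); Tris pH 8.0, 300 mM NaCl, 0.05% BSA, 0.02% Tween 20; GSH donor/Ni acceptor beads; 1 h 37 °C dark; AlphaScreen readout.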
D2 agonist = activates the human D2 dopamine receptor; DiscoveRx PathHunter D2 beta-arrestin, luminescence, 90 min; 100% = 57 uM dopamine signal; activation, % (no concentration beside the values); 0.084% of 360,000 active; P14416; in the data active = activation above about 40%; inconclusive = about 15% to 40%; inactive = below about 15%; also: compound concentration not given in the record; the text of the record calls up to 30% inactive
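DiscoveRx PathHunter D2 beta-arrestin cells (2,100/well) attached overnight, then compound-stimulated 90 min at 37 C in HBSS/10 mM HEPES/0.1% Tween-20 buffer; beta-galactosidase complementation read by luminescence after 1 h at ambient temperature. Dopamine 57 uM final (EC100) as control.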
TRPV1 potentiator = human TRPV1 potentiation; Q8NER1; TRPV1-expressing cells, Fluo-8 calcium influx, capsaicin EC20 potentiation; host cell line not named in the record; control for the full effect not named in the record; potentiation, % at 8.33 µM; 0.02% of 320,000 active; AID 540277; active means potentiation above 80%; inconclusive means 30% to 80%; inactive means below 30%; also: 0% is about no effect
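Cells expressing TRPV1 were dye-loaded with Fluo-8 and read kinetically: 10 s baseline, 3 min after compound (agonist portion), then 2 min after EC20 capsaicin (allosteric enhancer portion). Calcium-bound dye fluorescence at 480/520 nm.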
Sfp PPTase inh = Sfp phosphopantetheinyl transferase inhibition. Q9F4F7. AID 1490. Biochemical Sfp PPTase activity, qHTS. 3.5% of 310,000 active. Potency, µM, for inactives: max response, negative = inhibition, usual class: inhibitors; active = well fitted inhibition curve with a large enough effect; inconclusive = small, poorly fitted or top-dose-only effect, or another doubt; inactive = no such curve, though single readings can be large or run the other way;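 also: the enzyme is Sfp with the accession as filed and its product quenches rhodamine fluorescence; potency is read from the fitted curve at half-maximal effect; 0% = enzyme reaction without inhibitor and -100% = no enzyme wells; top concentration of the series not given in the record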
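Fluorescence-quenching assay with 15 nM Sfp, 5 uM rhodamine-CoA and 12.5 uM BHQ-2-labelled ybbR peptide in pH 7.6 Hepes/MgCl2 buffer. Enzyme was pre-incubated with compound for 15 min at room temperature. Rate was taken from the 30-min fluorescence change (525/598 nm).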
CtBP-E1A inh = inhibitors of CtBP/E1A interaction; AlphaScreen GST-E1A/His-CtBP binding, 1536-well; stronger effect = lower value; control for the full effect not named in the record; activity change, % (no concentration beside the values); 0.49% of 340,000 active; AID 651724; in the data active means activity change below about -65%; inconclusive means about -30% to -65%; inactive means above about -30%; also: % is scaled to controls: 0 for no effect and ±100 for the full control effect; compound concentration not given in the record
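In 5 uL wells, 23 nL compound meets equimolar GST-E1A and His-CtBP (5X stock 125 nM each) for 2 h, 37 °C. Beads (5X, 50 ug/mL) then 1 h, 37 °C, dark.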
* marks the source's active call; other numbers are inactive results; ? = inconclusive; nt = no result given; [ ] = remark or other dose.

canonical_smiles	D2 PAM	PINK1 expr mod	Six1-Eya2 inh	D2 agonist	TRPV1 potentiator	Sfp PPTase inh	CtBP-E1A inh
COCCn1c(SCC(=O)NC2CCCC2)nnc1-c1ccncc1	-4	2.2%	7	-3.5	-5	15%	9
CCOc1cc(/C=C2/SC(=Nc3ccccc3)N(Cc3cccnc3)C2=O)ccc1OCC#N	1	-0.7%	-9	-1.5	-1	?	-3
COc1cccc(OC)c1CN1CCCC(C(=O)c2ccccc2SC)C1 (stereo unspecified)	-14	13%	-6	-0.9	-8	0%	1
NNC(=O)c1n[nH]c2c1CC(C1CCCCC1)CC2 (stereo unspecified)	-6	4.4%	0	-2.6	-40	nt	-10
c1ccc(C[C@H]2CN=C(Nc3ccccc3)N2CC2CCCC2)cc1	nt	0.1%	13	nt	nt	nt	-26
CON(C)C(=O)/C=C/CCCCNC(=O)OC(C)(C)C	-4	-0.1%	5	-0.7	nt	nt	3
COCc1cc(=O)[nH]c(/N=C(\N)Nc2ccc(C)cc2)n1	-7	1.1%	4	-0.2	7	4%	5
COc1ccccc1Oc1c(C)oc2c(CN(C)C)c(O)ccc2c1=O	5	-0.3%	9	-5.3	-10	16%	-12
Cc1ccc(N(C(C)C(=O)Nc2ccc(S(=O)(=O)N3CCOCC3)cc2)S(C)(=O)=O)cc1C (stereo unspecified)	-3	-1.0%	8	-0.4	-2	7%	-2
CC(=O)Nc1ccc(NC(=O)COC(=O)c2ccc(Cl)nc2)cc1	-66	-1.9%	-4	-1.5	-5	nt	8
O=c1[nH]c(SCc2cccc([N+](=O)[O-])c2)nc2[nH]ncc12	-4	2.6%	-4	-0.2	4	17%	nt
O=c1ncn(-c2ccccc2C(F)(F)F)c2ncccc12	-1	-0.1%	-5	-3.8	7	25%	nt

New compounds follow
canonical_smiles	D2 PAM	PINK1 expr mod	Six1-Eya2 inh	D2 agonist	TRPV1 potentiator	Sfp PPTase inh	CtBP-E1A inh
O=C(O)c1ccc(-c2nnn(Cc3ccccc3F)n2)cc1	-7	0.2%	4	-2.4	-1	6%	nt
O=C(Nc1cccc(-c2csc(Nc3ccc(Cl)cc3)n2)c1)c1cccc(C(F)(F)F)c1	-11	?	1	-5.3	29	29%	-6
Cc1ccc(NC(=O)CN(C)CC(=O)N(C)Cc2ccccc2)cc1	-7	1.4%	-3	-5.7	-25	nt	nt
COc1cccc(C2Nc3cccc4cccc(c34)N2)c1	21	0.5%	9	?	14	6%	0
Fc1ccccc1OCCCCCCN1CCCC1	-6	9.9%[38.3 µM]	1	0.4	-3	-15%	0
C/C(CCc1ccc2c(c1)OCO2)=N\NC(=O)c1ccccc1Cl	-2	0.0%	-7	-0.9	4	17%	-2
CCn1c(CSc2nnc(C)n2-c2ccccc2)nc2cc(S(=O)(=O)N(C)C)ccc21	-2	2.0%	5	-3.6	3	-8%	-1
Cn1ccnc1SCC(=O)Nc1ccc([N+](=O)[O-])cn1	-16	-0.2%	1	-3.3	-6	3%	0
CCN(CC)S(=O)(=O)c1cc(C(=O)N2CCc3ccccc32)ccc1Cl	2	1.7%	4	-1.2	-11	1%	-9
COc1ccccc1NC(=S)N(Cc1ccccc1)Cc1cccs1	-3	-0.2%	-3	-3.6	11	-5%	-7
Cc1ccc([C@H]2C[C@@H](n3cc(-c4ccc(F)cc4)nn3)[C@H](O)CN2C(=O)c2cccs2)cc1	-2	-0.3%	-2	-1.4	nt	nt	-1
NC(=O)[C@@H]1CCCCNc2c(F)cc([N+](=O)[O-])cc2C(=O)N[C@@H](CC(=O)O)C(=O)N[C@@H](CCC(=O)O)C(=O)N1	-27	0.2%	8	-2.1	14	0%	-8

Additional structures follow:
canonical_smiles	D2 PAM	PINK1 expr mod	Six1-Eya2 inh	D2 agonist	TRPV1 potentiator	Sfp PPTase inh	CtBP-E1A inh
COc1ccc(/C=C/C(=O)OCC(=O)Nc2cc(C(F)(F)F)ccc2Cl)cc1	-2	6.8%	0	-5.4	3	26%	nt
COc1ccc(/C=C/C(=O)OCC(=O)Nc2cc(S(=O)(=O)N(C)C)ccc2Cl)cc1	-3	2.2%	10	1.6	8	5%	6
CCO/N=C/C(=O)Nc1ccc(F)cc1F	-4	0.3%	12	-2.5	-15	6%	1
C=CCCCCCCCC(=O)OC	-27	-0.9%	2	-4.0	4	10%	-4
COc1ccccc1C(=O)NCC(=O)N/N=C/c1ccncc1	0	0.7%	-6	-1.8	6	17%	5
CC(C)(C)OC(=O)N1CCC(NC(=O)c2nc[nH]c2C(=O)NC2CCN(C(=O)OC(C)(C)C)CC2)CC1	-12	-1.5%	2	1.3	-5	nt	-21
Cc1ccc2nc(NS(=O)(=O)c3cn(C)nc3C)sc2c1	-14	0.0%	-3	-2.1	-1	8%	-13
Cc1cccc(OCC(=O)Nc2cc(NC(=O)COc3cccc(C)c3)cc(C(=O)O)c2)c1	7	1.8%	-13	2.2	-3	0%	7
CC(C)c1ccc(N(CC(=O)Nc2ccc(S(=O)(=O)N3CCOCC3)cc2)S(C)(=O)=O)cc1	-1	-0.1%	-7	-1.7	3	22%	0
COc1ccc(-c2oc3ncnc(NCCCN(C)C)c3c2-c2ccc(OC)cc2)cc1	-15	-2.8%	-1	-2.7	3	-10%	-14
O=c1ccc(Cl)n[nH]1	1	3.2%	-1	-0.8	-8	14%	2
C=CCNC(=S)N1CCC(C(=O)c2ccc(F)cc2)CC1	-6	1.2%	-5	1.8	-38	7%	-1

Additional entries follow:
canonical_smiles	D2 PAM	PINK1 expr mod	Six1-Eya2 inh	D2 agonist	TRPV1 potentiator	Sfp PPTase inh	CtBP-E1A inh
C=CCn1c(SCC(=O)NCC(c2ccccc2)N(C)C)nnc1C1CCCCC1 (stereo unspecified)	-11	0.6%	-1	-1.8	-5	nt	nt
CC(=O)Nc1ccc(NC(=O)C2CCCCC2C(=O)O)cc1 (stereo unspecified)	-19	0.6%	6	-1.2	-9	5%	-2
COc1ccccc1NS(=O)(=O)c1ccc(-c2cc(C)no2)s1	-10	2.2%	2	2.4	-7	1%	nt
Cc1ccc(NC(=O)C2(NC(=O)c3cccc(N4C(=O)CSC4c4ccccc4)c3)CCCCC2)cc1 (stereo unspecified)	-17	-2.1%	-1	-4.3	22	8%	-1
COCC1CCCCN1C(=O)c1cc(COc2ccc3ncccc3c2)on1 (stereo unspecified)	-1	4.2%	6	4.0	-8	12%	nt
COc1ccc(CC(N)c2csc(NC(=O)c3cc(C(C)(C)C)oc3C)n2)cc1 (stereo unspecified)	4	-0.9%	1	5.5	nt	nt	2
COc1cc(-c2nnn(CC#N)n2)ccc1OCc1ccccc1	-13	nt	2	-1.1	-12	5%	2
Cc1ccc(C(=O)N/N=C2/NC(=O)CC(C(=O)Nc3ccccc3)S2)cc1 (stereo unspecified)	-3	0.1%	4	1.7	2	32%[activator]	-7
Cc1ccsc1C(=O)N1CCN(C(=O)c2ccco2)CC1	-3	0.1%	0	-4.4	2	nt	-11
O=C(Nc1nc2nccc(-c3ccccc3)n2n1)C(Cl)(Cl)Cl	8	-0.9%	-3	2.1	9	33%[activator]	1
c1ccc(-c2ccncn2)cc1	-6	-0.1%	3	-0.2	nt	nt	-2
Cc1cc(=O)oc2cc(OCC(=O)Nc3ccc(CN4CCOCC4)cc3)c(Cl)cc12	-21	1.6%	3	-1.2	5	1%	-13

Following part.
canonical_smiles	D2 PAM	PINK1 expr mod	Six1-Eya2 inh	D2 agonist	TRPV1 potentiator	Sfp PPTase inh	CtBP-E1A inh
COc1ccc(C(O)c2nc(-c3cccc(F)c3)cs2)cc1 (stereo unspecified)	-2	12%	6	9.1	nt	nt	5
O=C(CCC(=O)c1cccs1)OCc1nnc(-c2ccccc2)o1	5	-1.6%	0	-2.8	2	12%	4
Cc1ccc(CNS(=O)(=O)c2cccc3nsnc23)cc1	-1	1.7%	6	-5.6	22	3%	6
CCOc1ccc(CNC(=S)N/N=C\c2ccc([N+](=O)[O-])cc2)cc1	20	4.4%	-8	9.6	15	56µM*	-2
CCCCCCSc1ccc([C@@H]2[C@H]3C(=O)N(CC)C(=O)[C@H]3[C@]3(C(=O)OC)CCCN23)cc1	-54	2.7%	-13	-2.3	-11	nt	0
Cc1cc(C(=O)CSc2nnc(-c3cccnc3)n2-c2ccccc2F)c(C)n1C	3	1.8%	-20	-3.1	-1	-1%	-21
CCC(CC)c1nnc(NC(=O)CC(C)c2ccccc2)s1 (stereo unspecified)	1	5.7%	0	5.8	1	-17%	1
N=C1SC(CC(=O)Nc2ccccc2[N+](=O)[O-])C(=O)N1c1ccccc1 (stereo unspecified)	4	0.4%	-2	2.8	4	16%	nt
Oc1ccccc1-c1nc(N2CCCC2)c2ccccc2n1	-10	4.3%	0	-1.9	0	17%	4
CCCS(=O)(=O)N1CCC(C(=O)NCCN2CCCC2)CC1	-9	1.6%	9	-1.5	13	8%	-4
CCCN(CC(=O)Nc1ccccc1C)C(=O)Cc1coc2cc(C)ccc12	-7	4.1%	0	-2.4	6	-2%	-1
Cc1ccc(Cl)cc1N1CCN(C(=O)C(=O)N2CCCCC2)CC1	-3	1.9%	10	-4.7	-29	3%	3

Continuation.
canonical_smiles	D2 PAM	PINK1 expr mod	Six1-Eya2 inh	D2 agonist	TRPV1 potentiator	Sfp PPTase inh	CtBP-E1A inh
COc1ccc(CNC(=O)C(OC(=O)c2ccco2)c2ccccc2)cc1 (stereo unspecified)	-10	0.9%	-22	-7.0	-9	6%	-1
CC(=O)Nc1ccc(S(=O)(=O)N2CCN(c3cc(C(F)(F)F)ccn3)CC2)cc1	-9	0.2%	-1	5.1	-23	4%	1
C/C=C/c1ccc(OCC(=O)N2CCc3cc(OC)c(OC)cc3C2)c(OC)c1	-7	1.2%	-6	-1.8	0	3%	1
O=C(CSc1ncnc2sccc12)NCc1ccc2c(c1)OCO2	1	1.5%	-4	-0.8	5	nt	-1
CC1(C)CC(=O)c2c(oc3ccc(NS(=O)(=O)c4ccc(C(=O)O)cc4)cc23)C1	-2	-0.1%	0	0.0	2	2%	-19
CCOc1ccccc1NC(=O)c1cc2ccccc2o1	-10	0.7%	-2	-1.6	nt	nt	-3
O=C(O)c1cccc(N2C(=O)C3CC=CCC3C2=O)c1 (stereo unspecified)	6	-2.9%[38.3 µM]	6	0.4	8	16%	5
COc1ccc(OCCCC(=O)NCCc2ccc(OC)c(OC)c2)cc1	0	1.6%	10	-2.3	-7	0%	4
CC1Cc2ccccc2N1C(=O)CN1CCN(S(=O)(=O)c2ccc3c(c2)OCCCO3)CC1 (stereo unspecified)	-32	-0.7%	1	-0.2	nt	nt	-6

Source: PubChem BioAssay (National Center for Advancing Translational Sciences (NCATS))
